Source: PubChem BioAssay (National Center for Advancing Translational Sciences (NCATS))
TRPV1 potentiator: enhances activation of the human vanilloid receptor TRPV1; actives 0.02% (n = 320,000); TRPV1-expressing cells, Fluo-8 calcium influx, capsaicin EC20 potentiation; host cell line not named in the record; control for the full effect not named in the record; Q8NER1; AID 540277; potentiation, % at 8.33 µM; active means potentiation above 80%; inconclusive means 30% to 80%; inactive means below 30%; also: 0% is about no effect
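Fluo-8 calcium influx in TRPV1-expressing cells, kinetic read (ex 480/em 520 nm). Compound added and read 3 min for agonist activity, followed by capsaicin at EC20 final and 2 min further read for enhancement.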
TRPML1 ag: agonists of human TRPML1 channel; Q9GZU1; TRPML1-expressing cells, Ca2+ dye fluorescence, FDSS; host cell line not named in the record; reference of the full effect not given here; activation, % (concentration not given with the values); actives 0.12% (n = 410,000); AID 624414; in the data active = activation above about 50%; inconclusive = about 30% to 50%; inactive = below about 30%; also: 0% is about no effect; the text of the record puts the active cut at 80%
Target sequence (Q9GZU1 whole entry, looked up): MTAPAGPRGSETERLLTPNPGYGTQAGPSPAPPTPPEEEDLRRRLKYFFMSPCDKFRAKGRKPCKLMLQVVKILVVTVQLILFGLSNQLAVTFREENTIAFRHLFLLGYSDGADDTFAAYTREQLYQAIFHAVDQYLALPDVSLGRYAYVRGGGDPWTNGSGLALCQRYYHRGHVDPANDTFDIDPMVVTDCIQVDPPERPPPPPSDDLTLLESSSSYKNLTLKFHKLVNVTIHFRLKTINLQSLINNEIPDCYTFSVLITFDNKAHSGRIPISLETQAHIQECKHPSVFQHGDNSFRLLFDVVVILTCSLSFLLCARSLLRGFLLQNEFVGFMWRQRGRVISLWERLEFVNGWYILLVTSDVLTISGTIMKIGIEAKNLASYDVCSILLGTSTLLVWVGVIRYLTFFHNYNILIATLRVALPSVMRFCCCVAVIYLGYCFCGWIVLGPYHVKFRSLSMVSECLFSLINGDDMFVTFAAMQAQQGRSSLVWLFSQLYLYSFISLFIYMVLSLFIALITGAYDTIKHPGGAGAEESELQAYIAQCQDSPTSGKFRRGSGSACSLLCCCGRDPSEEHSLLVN
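Cells: TRPML1-DL, 1X Tet inducer, ~16 h at 37 degrees C/5% CO2. Dye: ABD Ca8 no-wash + quencher, 45-90 min RT. Read: 10 s baseline, compound add, 110 s agonist phase; 54-4 EC80 (4uM final), 110 s antagonist phase.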
TRPML1 blocker: blocks the human TRPML1 channel; Q9GZU1; TRPML1-inducible cells, Ca2+ dye fluorescence, FDSS; stronger effect = lower value; inhibition of EC80 agonist-evoked calcium signal; activity change, negative = inhibition, % (test concentration not listed); actives 0.02% (n = 390,000); AID 624415; in the data active means activity change below about -50%; inconclusive means about -30% to -50%; inactive means above about -30%;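 also: stimulus is agonist 54-4 at its EC80 concentration; % is scaled to controls: 0 for no effect and ±100 for the full control effect; compound concentration not given in the record; the text of the record puts the active cut at -80%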
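Tet-induced TRPML1-DL cells loaded with Ca8 no-wash calcium dye were read kinetically on FDSS. Compound addition was followed by EC80 agonist 54-4 (4 uM final); inhibition was read over 110 s.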
ClpP mod: qHTS Assay for Activators of ClpP; ATP-dependent Clp protease proteolytic subunit (Bacillus subtilis (strain 168)), P80244; purified B. subtilis ClpP, FRET peptide cleavage, 20 min; Potency, µM (highest dose often 57.5 µM), for inactives: top-dose activity change, negative = active; actives 1.9% (n = 340,000); active = well fitted falling curve with a large enough effect; inconclusive = small, poorly fitted or top-dose-only effect; inactive = no such curve, though single readings can be large or run the other way; also: potency is read from the fitted curve at half-maximal effect; the source files actives as falling curves though it sought activators and does not explain the sign; nearly all actives have a fitted effect of over 65% in size; many hits overshoot -100%
Target sequence (P80244 whole entry, looked up): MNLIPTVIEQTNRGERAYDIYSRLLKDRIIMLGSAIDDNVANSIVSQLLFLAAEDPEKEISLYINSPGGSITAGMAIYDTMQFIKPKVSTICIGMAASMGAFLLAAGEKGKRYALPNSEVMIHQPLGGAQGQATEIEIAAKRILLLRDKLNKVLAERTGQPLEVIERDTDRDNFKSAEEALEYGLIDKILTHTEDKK
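ClpP 10 microg/mL final, pH 8 Tris/KCl buffer with BSA, glycerol, Tween-20; compound pinned in; FRET-FV substrate; RT 20 min; Ex320/Em430; ΔFRET vs ADEP 5.8 microM, DMSO, no enzyme.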
Sfp PPTase inh: inhibitors of Bacillus subtilis Sfp phosphopantetheinyl transferase; AID 1490; actives 3.5% (n = 310,000); Potency, µM, without a hit: max response, negative = inhibition, most hits filed as inhibitors; Biochemical Sfp PPTase activity, qHTS; active = well fitted inhibition curve with a large enough effect; inconclusive = small, poorly fitted or top-dose-only effect, or another doubt; inactive = no such curve, though single readings can be large or run the other way;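 also: the enzyme is Sfp with the accession as filed and its product quenches rhodamine fluorescence; potency is read from the fitted curve at half-maximal effect; 0% = enzyme reaction without inhibitor and -100% = no enzyme wells; top concentration of the series not given in the record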
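Fluorescence-quenching assay with 15 nM Sfp, 5 uM rhodamine-CoA and 12.5 uM BHQ-2-labelled ybbR peptide in pH 7.6 Hepes/MgCl2 buffer. Enzyme was pre-incubated with compound for 15 min at room temperature. Rate was taken from the 30-min fluorescence change (525/598 nm).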
Menin-MLL FL inh: menin-MLL binding inhibition, fluorescein peptide; FP activity change, % at 61.4 µM; AID 1766; Fluorescence polarization, fluorescein-MLL peptide displacement from menin; 290,000 tested, under 10 active; inconclusive = falling polarisation curve, or a change in total fluorescence; inactive = total fluorescence flat and polarisation flat or rising; no compound was filed as active; the % refers to the polarisation; negative = inhibition;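 also: % of control where 0% means no effect; inhibitors lower the polarisation; unlabelled MLL peptide was the positive control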
PINK1 expr mod: PINK1 expression modulation. actives 0.2% (n = 410,000). Potency, µM (doses to about 76.6 µM), for inactives: at the top dose activation (PINK1 increase), most hits filed as activators. PINK1 immunofluorescence, high-content cytometry, 24 h; active = well fitted activation curve with a large enough effect; inconclusive = small, poorly fitted or top-dose-only effect; inactive = flat fitted curve, though single readings scatter; cell line not stated here;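 also: potency is read from the fitted curve at half-maximal effect; % of control where 0% means no effect; nearly all actives have a fitted effect of over 65% in size; a mitochondrial uncoupler was the plate control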
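Fluorescence from anti-PINK1 antibody, together with nuclear and cell stains, was scanned on a laser-scanning cytometer. Before staining, stable-line cells were incubated 24 hours with compounds at 5 concentrations; primary antibody 12 h at 10 degrees C.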
* marks the source's active call; other numbers are inactive results; ? = inconclusive; . = not tested or not shown; & = joins results of further samples; [ ] = remark or other dose. Rows are unselected; overall some 4.4% were active at least once.

SMILES	TRPV1 potentiator	TRPML1 ag	TRPML1 blocker	ClpP mod	Sfp PPTase inh	Menin-MLL FL inh	PINK1 expr mod
Cc1ccn2cc(CCNS(=O)(=O)c3ccc(F)c(C(F)(F)F)c3)nc2c1	?	0.3	3.1	-3.7%	21.3%	0.6	1.4%
CCOc1cc(C(=O)CCC(=O)OCC(=O)Nc2ccc(F)cc2)ccc1O	?	0.7	-10.6	1.2%	.	.	2.3%
COc1ccccc1NC(=O)CCN1CCN(Cc2ccccc2)CC1	-13.4	-0.3	-13.1	-0.9%	8.9%	2.1	.
NC(=O)C1=C(N=C2CCCCC2)CCCC1	.	0.9	-15.2	31.6µM*	.	.	-1.1%
O=C(CCN1C(=O)CSc2ccccc21)Nc1ccc(C(F)(F)F)cc1	7.5	-0.7	-6.8	1.8%	.	.	3.5%
CCOc1ccc(N2C(=O)c3ccccc3C2=O)cc1	?	0.2	-7.2	0.7%	1.4%	3.3	0.0%
Cc1ccc(NC(=O)COc2ccc(Br)cn2)cc1	-0.8	-0.5	-2.8	-0.8%	15.8%	-0.4	3.0%
O=C(COC(=O)Cc1ccccc1F)Nc1ccc(Cl)cn1	0.3	-0.4	-0.6	.	6.4%	-3.1	0.7%
COc1ccc(C2Nc3ccccc3C(=O)N2NS(C)(=O)=O)cc1OC (configuration not stated)	-2.8	0.2	-0.8	.	16.2%	0.0	1.1%
Cc1ccc(N(Cc2cc3ccc(C)cc3[nH]c2=O)S(=O)(=O)c2ccccc2)c(C)c1	5.0	2.3	-1.1	1.3%	18.8%	0.8	12.7%
Cc1cc2ccccn2c1C(=O)c1cccc(S(=O)(=O)N2CCOCC2)c1	-12.2	1.2	20.9	.	-6.8%	0.9	1.0%
O=C(Nc1ncccc1O)c1ccc2c(c1)OCCO2	-5.5	0.1	-9.6	-0.4%	.	.	3.2%
COc1ccc(NC(=S)N(Cc2ccc(C)cc2)Cc2ccccn2)cc1	2.3	1.5	19.3	.	15.4%	-4.0	1.9%
CC(C)(C)N(Cc1ccccc1)C(=O)COC(=O)CCc1c[nH]c2ccccc12	?	2.6	12.5	0.5%	19.1%	4.6	1.5%
CCOC(=O)C1=C(C(F)(F)F)Nc2ncnn2C1c1ccc(OC)cc1OC (configuration not stated)	-1.9	0.5	-24.9	-3.2%	-3.4%	2.9	2.0%
CC(N)C(=O)NC(C(=O)N1CCCC1C(=O)NC(c1ccccc1)c1ccccc1)C(C)C (configuration not stated)	7.7	-0.6	5.0	-1.0%	.	.	0.2%
CCOc1ccccc1NC(=O)COC(=O)C1CCC1	.	-0.7	-9.8	0.3%	.	.	-0.7%
Cn1ccnc1C(OC(=O)c1ccc(Cl)cc1)C(F)(F)F (configuration not stated)	-0.4	0.8	20.2	-1.0%	2.4%	-0.3	-1.0%
CCN(CC)C(=S)Nc1cc(C(=O)OC)ccc1C(=O)OC	-0.6	-0.4	12.4	-1.6%	5.2%	7.3	-2.3%
CC(C)(C)NC(=O)Cn1c(=O)oc2ccc(Cl)cc21	-14.0	-0.6	-0.6	-2.7%	21.4%	1.1	-0.2%
CCC1Sc2ccccc2N(CC(=O)NC2CCCCC2)C1=O (configuration not stated)	-23.1	-0.5	-1.8	-2.9%	10.4%	2.4	0.3%
CCCCOc1ccc(-c2ncc(C(=O)O)c(C)n2)cc1	-0.6	0.0	4.9	?	7.4%	0.7	0.1%
CCn1ccnc1CNCc1cn(-c2cc(C)ccc2C)nc1-c1ccccc1	-6.9	1.0	-8.2	-1.4%	-13.6%	-0.9	3.1%
O=[N+]([O-])c1ccc(C2=Nn3c(Cn4nnc5ccccc54)nnc3SC2)cc1	3.9	0.2	-0.9	.	20µM*	0.4	1.6%
Cc1cc(C)cc(N2C(=O)CSC2c2ccccn2)c1 (configuration not stated)	5.1	0.3	0.8	-17.2%	23.7%	-5.1	3.0%

Whole records as entered above.
O=C(Nc1ncccc1O)c1ccc2c(c1)OCCO2 reads TRPV1 potentiator: -5.5; TRPML1 ag: 0.1; TRPML1 blocker: -9.6; ClpP mod: -0.4%; Sfp PPTase inh: .; Menin-MLL FL inh: .; PINK1 expr mod: 3.2%
COc1ccc(C2Nc3ccccc3C(=O)N2NS(C)(=O)=O)cc1OC (configuration not stated) reads TRPV1 potentiator: -2.8; TRPML1 ag: 0.2; TRPML1 blocker: -0.8; ClpP mod: .; Sfp PPTase inh: 16.2%; Menin-MLL FL inh: 0.0; PINK1 expr mod: 1.1%

(continued)
SMILES	TRPV1 potentiator	TRPML1 ag	TRPML1 blocker	ClpP mod	Sfp PPTase inh	Menin-MLL FL inh	PINK1 expr mod
COc1ccc(Cl)cc1NC(=O)CSC1=NN2CCCC(=O)N=C2S1	-11.3	1.1	-2.4	.	16.8%	4.6	-0.1%
Cc1ccc(C2CC(c3ccc(Cl)cc3)n3nc(N)nc3N2)cc1 (configuration not stated)	8.7	1.2	2.4	1.4%	11.6%	-0.9	3.3%
CC1CN(c2ccc(Oc3ccccc3)cc2)c2nc3c(c(=O)n(CC(N)=O)c(=O)n3C)n2C1 (configuration not stated)	?	-0.4	6.2	-14.3%	-0.3%	-1.2	2.1%
CCOc1cccc2cc(C(=O)NCc3cccnc3)c(=O)oc12	-21.1	0.4	1.1	-1.8%	-10.5%	2.7	11.2µM*
Cc1noc(C)c1C(=O)Nc1cc(S(=O)(=O)N2CCCCC2)ccc1N(C)C	-27.4	0.4	-10.2	0.7%	.	.	4.0%
Cc1ccc(NC(=O)C2CCCN(C(=O)Nc3ccc(F)cc3)C2)cc1 (configuration not stated)	-3.0	0.1	-0.8	.	2.5%	-2.9	-1.2%
CCC1(C)COC(C)(CC(=O)NNC(=O)Nc2ccccc2)OC1 (configuration not stated)	0.6	-0.6	-14.2	-0.6%	18.9%	2.6	4.6%
O=c1nc(N2CCCCCC2)nc(N2CCCCCC2)[nH]1	-2.1	0.0	32.1	0.1%	7.8%	2.0	-0.5%
CC(OC(=O)c1nsc(Cl)c1Cl)C(=O)NC1CCCCC1 (configuration not stated)	3.0	-0.5	-7.3	.	5.5%	.	0.0%
CCOc1cc(N2CCOCC2)c(OCC)cc1NC(=O)C1CC(=O)N(c2ccccc2OCC)C1 (configuration not stated)	-11.2	1.5	-14.5	-1.6%	.	.	0.5%
O=C(NC1CC1)c1cc(Cl)nc2ccccc12	-2.8	0.1	-18.2	.	.	.	1.5%
Cc1cccc(Nc2ccccc2C(=O)O)c1C	12.2	1.1	-9.2	0.0%	21.6%&11.3%&0.5%&27.9%	-5.8	4.7%
COc1cc(/C=N/NS(=O)(=O)c2ccc3ccccc3c2)ccc1OCCN1CCOCC1	8.8	0.0	8.2	-3.7%	1.5%	5.4	3.5%
CCOc1cc(CNCCc2ccc(S(N)(=O)=O)cc2)ccc1OCC(=O)NC(C)(C)C	3.0	-1.0	-26.5	1.0%	12.4%	8.1	0.4%
Cc1cccc2c3c([nH]c12)CCNC3	-15.3	0.4	11.7	?	0.9%	4.4	-1.0%
CCOC(=O)C(=CNc1ccc(Oc2cccnc2)nc1)C(=O)OCC	.	0.3	-4.4	-0.9%	26.1%	2.2	-4.2%
Cc1ccc(C(Sc2ccccc2)C(Cn2cncn2)C(=O)c2ccccc2)cc1 (configuration not stated)	3.2	1.2	12.6	1.3%	?	0.1	5.2%
Nc1c(C(=O)NCc2ccco2)sc2nc(N3CCOCC3)c3c(c12)CCCC3	7.5	0.1	-1.6	?	12.6µM*	9.5	4.0%
O=C(Nc1nnc(CCOCCOCCc2nnc(NC(=O)c3ccco3)s2)s1)c1ccco1	1.8	-0.2	2.2	-16.8%	?	3.5	.
CCOCCCn1c(SCC(=O)Nc2ccc(C(C)C)cc2)nc2c(sc3ccccc32)c1=O	.	-0.1	-8.0	1.4%	.	.	1.2%
Cc1nn(-c2ccccc2)c(Cl)c1/C=N/Nc1nnc(C)c(=O)[nH]1	-6.2	5.8	48.0	.	-6.8%	0.7	6.7%
COc1ccc(CC(=O)OCC(=O)Nc2ccc(Cl)c(S(=O)(=O)N(C)C)c2)cc1	5.1	-0.1	-7.4	0.7%	16.4%	0.4	2.5%
Cn1c(=O)n(C)c2cc3[nH]cnc3cc21	?	-0.5	8.6	0.5%	1.3%	.	0.7%
COc1ccc(CCNC(=O)COc2cc(O)c3c(c2)OC(C)(C)CC3=O)cc1	2.2	-0.2	-4.9	-5.2%	-3.1%	-1.3	-0.9%
COC(=O)c1ccc(C(=S)N2CCCCC2)cc1	-17.2	-0.1	12.4	.	13.5%	2.8	0.5%
Next section
SMILES	TRPV1 potentiator	TRPML1 ag	TRPML1 blocker	ClpP mod	Sfp PPTase inh	Menin-MLL FL inh	PINK1 expr mod
Cc1nc2c(Cl)c(C)nn2c2c1CCC2	?	-0.6	5.7	.	13.2%	2.6	1.5%
CCOC(=O)c1scc(-c2ccc(C)cc2)c1S(=O)(=O)Nc1cc(OC)ccc1OC	.	-0.2	6.3	2.2%	.	.	-0.4%
C=CCNC(=O)c1ccccc1NC(=O)c1ccccc1SC	9.6	-0.4	8.7	.	20µM*	-1.7	0.9%
Cn1sc(=O)c2cc(S(=O)(=O)NC3CC3)ccc21	-6.3	1.9	-1.9	.	11.2µM*	0.6	-0.6%
CNC(=O)C1CCC(Cn2c(=O)c3sccc3n(CC(=O)NCc3ccccc3)c2=O)CC1 (configuration not stated)	.	-0.2	7.7	-1.1%	.	.	2.0%
COc1cccc(CNC(=O)CSc2nc(=O)n(Cc3ccncc3)c3c2CCC3)c1	-29.8	-0.1	0.2	12.6µM*	.	.	0.8%
CC1(C)CC(NC(=O)c2sc3cc(Cl)ccc3c2Cl)CC(C)(C)N1	11.7	0.0	-3.9	.	18.2%	-0.1	-1.7%
CCCCN(CCO)CCCC	6.0	-0.9	5.0	0.2%	.	.	0.6%
CC1=CC(C)(C)N2C(=O)C3(C(C#N)=C(N)Oc4cc(C)oc(=O)c43)c3cc(C)cc1c32 (configuration not stated)	.	0.0	18.5	-0.4%	.	.	.
O=C(Nc1ccc(Cl)cc1)N1CC=CCC1	5.3	1.2	-13.6	1.5%	7.8%	0.0	2.7%
Cc1ccc(N(c2ncnc(N)c2[N+](=O)[O-])C2CCCCC2)cc1	-5.6	-0.2	14.4	-0.6%	4.1%	-2.0	14.2%[38.3 µM]
